RanGTP-Imp inh: inhibitors of RanGTP-importin-beta interaction, primary screen, biochemical, FRET, CFP-Ran, YFP-importin-beta, homogeneous; cell-free CFP-Ran/YFP-importin-beta FRET ratio; inhibition, % (no concentration beside the values); 300,000 tested, 1.1% active;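 active = most replicates above 15%; inconclusive = exactly half above 15%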;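 also: 0% = DMSO wells and 100% = Ran loaded with GDP instead of GTP; wells of about 40 µL received 100 nL stock; the first replicate is given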
Calb FLC: C. albicans growth modulation with fluconazole; C. albicans CaCi-2 (fluconazole-resistant clinical isolate) + fluconazole, Alamar Blue growth, 48 h; growth inhibition, % (test concentration not listed); 300,000 tested, 0.57% active; AID 1979;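 active = most replicates above 75%; inconclusive = exactly half above 75%; inactive = most below 75%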;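 also: all wells also contain fluconazole at 8 µg/ml as a sub-toxic cotreatment; 0% = median of DMSO wells and 100% = median of geldanamycin control wells; wells of about 8 µL received 7.5 nL stock; the first replicate is given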
rRNA inh HTS: selective bacterial rRNA inhibition in E. coli; E. coli WT GFP vs humanized-ribosome RFP mutants, fluorescence, 24 h; stronger effect = lower value; DMSO median 0, no signal -100; GFP signal change (wild-type ribosome), % (concentration not given with the values); 350,000 tested, 1.6% active;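 active = significant combined selectivity score with lowered wild-type GFP, culture density cut under 30%, mutant RFP and density less affected; inactive = any of these conditions unmet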; also: one replicate is shown; some compounds called inactive have numbers as strong as hits
Vif A3G: inhibitors of Vif binding to APOBEC3G peptide, primary screen, biochemical, TR-FRET, GST-Vif 1-94, biotin-A3G peptide, dose response retest (AID 1117319); TR-FRET GST-Vif / biotin-A3G peptide binding; higher % means a stronger effect; test concentration not given here; strong numbers were not always called active; inhibition, %; hits with a dose series show IC50 in µM; 260,000 tested, 0.57% active;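 active = above the screen mean plus three standard deviations and confirmed in dose response; inconclusive = results disagree or hit not tested in dose response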;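 also: Vif residues 1-94 fused to GST binding biotinylated APOBEC3G peptide 110-148; 0% = full assay without inhibitor and 100% = GST in place of GST-Vif; retest series ran down from 100 µM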
AF4-AF9 inh: blocks AF4 peptide binding to human AF9; P42568; AlphaScreen, biotin-AF4 peptide binding to FLAG-AF9; inhibition, % at 10 µM; 350,000 tested, 0.47% active; AID 651704;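 active = every replicate reaching a set inhibition limit, whatever the replicate mean, cut at about 25% in these data; inconclusive = mean inhibition reaches that limit but some replicates miss it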;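 also: 0% = plate neutral control median and 100% = total signal loss; the record names both 10 and 1 µM as test concentration; the first replicate is given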
Target sequence (P42568 whole entry, looked up): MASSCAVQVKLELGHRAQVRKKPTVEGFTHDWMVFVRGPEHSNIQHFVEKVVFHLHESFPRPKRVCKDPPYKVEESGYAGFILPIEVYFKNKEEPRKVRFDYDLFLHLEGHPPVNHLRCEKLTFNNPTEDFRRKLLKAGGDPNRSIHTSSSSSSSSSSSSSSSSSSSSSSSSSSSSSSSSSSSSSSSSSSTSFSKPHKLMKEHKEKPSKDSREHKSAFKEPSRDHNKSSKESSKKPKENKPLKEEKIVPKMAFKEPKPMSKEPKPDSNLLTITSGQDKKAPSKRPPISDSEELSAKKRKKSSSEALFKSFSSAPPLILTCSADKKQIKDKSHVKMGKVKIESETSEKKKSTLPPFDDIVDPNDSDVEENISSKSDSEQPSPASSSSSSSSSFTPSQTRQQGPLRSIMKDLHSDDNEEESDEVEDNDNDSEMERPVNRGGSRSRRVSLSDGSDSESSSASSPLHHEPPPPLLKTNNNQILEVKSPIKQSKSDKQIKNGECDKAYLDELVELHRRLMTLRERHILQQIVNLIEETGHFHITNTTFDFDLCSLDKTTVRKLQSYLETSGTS
Bfl-1 A1 inh: inhibitors of the anti-apoptotic protein A1, read as caspase activation. 330,000 tested, 0.066% active. MEF A1-2A-BIM cells, Caspase-Glo 3/7 luminescence, 3 h; percent of clofoctol response, vehicle zero. caspase activation, % (no concentration beside the values). AID 2462;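 active = over half of replicate activation scores above 10%, or exactly half above 10 with the replicate mean above 10; inconclusive = replicate mean below 10 yet half the replicates above 10; inactive = over half of replicates below 10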;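 also: wells of about 30 µL received 50 nL stock; many hits fall short of the cut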
Beta apoptosis: blocks beta cell apoptosis; AID 435005; protection from apoptosis, % (concentration not given with the values); 300,000 tested, 0.8% active; INS-1E cytokine-induced death, ATP luminescence, 48 h; percent of positive-control rescue, neutral wells zero;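 active = all replicates at 75% or more, or half of them and the mean; inconclusive = half reach 75% but not the mean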;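 also: 0% = cytokine-treated negative control wells and 100% = positive control rescue; higher means more ATP so stronger rescue from cytokine killing; wells of about 40 µL received 100 nL stock; the first replicate is given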
T cruzi repl: T. cruzi replication inhibition | 300,000 tested, 1.4% active | T. cruzi beta-gal in NIH3T3, luminescence, 90 h | inhibition, % (no concentration beside the values);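 active = mean inhibition across valid replicates above about 55%, limit read from the data; inconclusive = mean below that limit but half or more replicates reach it; inactive = mean below it, under half of replicates reach it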;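 also: signal also drops with host cell toxicity which is not excluded here; 0% = plate median of DMSO wells and 100% = zero luminescence signal; higher percent means less beta-gal luminescence so fewer parasites; stock transfer was 50 nL into about 50 µL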
rRNA inh HTS OD600: further read-out of rRNA inh HTS, marked with its call; OD600 change, %; measured here: OD600 growth;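 optical density of the mix in the first replicate; 0 = DMSO median and -100 = no signal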
rRNA inh HTS RFP: also measured in rRNA inh HTS; calls as there; RFP signal change, %; measured here: RFP humanized mutant strains;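 first replicate; 0 = DMSO median and -100 = no signal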
* = called active by the depositor; ? = inconclusive; . = not tested or not shown. Only part of the results is shown (hit frequency here may not be typical).

SMILES | RanGTP-Imp inh | Calb FLC | rRNA inh HTS | rRNA inh HTS OD600 | rRNA inh HTS RFP | Vif A3G | AF4-AF9 inh | Bfl-1 A1 inh | Beta apoptosis | T cruzi repl
Cc1[nH]n(C2=NCCS2)c(=O)c1N=Nc1cccc(C(F)(F)F)c1 | 2.7 | 22 | -25* | -16* | -2.3* | -5% | 4.3 | -3.7 | 94* | 60*
COc1ccc(C2=CC(=O)C[C@H](c3ccc4c(c3)OCO4)C2)cn1 | . | . | 2 | -4 | 9.9 | . | 1.7 | -1.2 | -4 | .
CSc1nnc(-c2cccc(C)c2)n1N | 1.9 | 11 | . | . | . | -5% | . | 0.3 | -2 | 7
COc1cc(/C=N/NC(=O)C(Cc2c[nH]c3ccccc23)NC(=O)OCC(C)C)cc([N+](=O)[O-])c1O (stereo not given) | 1.2 | 23 | -8 | -5 | -1.6 | ? | 7.8 | 0.9 | -6 | 3
Cc1ccccc1NC(=O)CSC(=O)c1ccccc1 | . | . | 12 | 10 | 0.6 | . | -3.4 | 0.1 | -3 | .
O=C(CSCc1ccccc1)Nc1ccc(F)c(F)c1 | 0.4 | -3 | . | . | . | 3% | . | 1.2 | -7 | -13
COc1ccc(C2(C(=O)NC3CCCCC3)CCOCC2)cc1OC | 0.3 | -3 | . | . | . | -3% | . | 0.0 | -3 | -8
O=C(NCCCN1CCOCC1)c1c(F)c(F)c(F)c(F)c1F | -1.7 | -1 | 1 | 3 | -1.4 | . | -4.6 | -0.2 | -6 | -12
C=CCn1c(SCc2cc(=O)n3cc(C)ccc3n2)nnc1-c1ccc(F)cc1 | 0.2 | 6 | . | . | . | . | . | 0.6 | . | 1
O=C1c2ccccc2C(=O)N1CCOc1cccc(Br)c1 | -2.8 | 37 | 7 | 10 | -0.1 | . | -2.3 | -0.8 | 1 | -6
CCn1c(CCNC(=O)c2ccc(F)cc2)nc2ccccc21 | -1.3 | -3 | 2 | 1 | -0.9 | -4% | -1.6 | -0.3 | 11 | -14
COC(=O)c1nc(N)sc1C(C)C | 4.1 | -16 | 13 | -5 | 0.3 | -8% | -1.3 | 0.5 | -13 | -15
COc1ccc(C(=O)NN(c2ccccc2)c2ccccc2)cc1 | -4.8 | -29 | . | . | . | 25% | . | 0.4 | -4 | -6
Cc1c(NC(=O)c2ccc(N(C)S(C)(=O)=O)cc2)c(=O)n(-c2ccccc2)n1C | . | -19 | 5 | 10 | 2.9 | -7% | -13 | 0.3 | -2 | -5
Cc1ccc(-c2noc(C3CCN(C(=O)Nc4ccc(C#N)cc4)CC3)n2)o1 | -1.1 | -8 | . | . | . | -7% | . | -1.1 | 3 | -5
Cc1ccccc1Sc1ccc(N)cn1 | 3.3 | -12 | 47 | 0 | 21 | . | -1.1 | -0.3 | . | 10
COc1ccc(C(=O)/C=C/Nc2ccc([N+](=O)[O-])cc2C)c(OC)c1 | 0.9 | -12 | 3 | 8 | -5.2 | ? | 9.4 | -1.6 | 4 | 9
C=CCNc1nc(NCc2ccccc2)nc(OCC)n1 | 0.1 | 1 | -7 | -6 | 12 | . | -1.8 | 1.8 | 0 | -1
OC(COC(c1ccccc1)c1ccccc1)CN1CCc2ccccc2C1 (stereo not given) | -1.4 | -9 | -18 | -37 | -0.3 | 23% | 0.9 | -1.0 | 2 | 2
Cc1ccc(C)c(CN2C(=O)C3CCCN3c3ccc(C#N)cc32)c1 (stereo not given) | -0.4 | -6 | . | . | . | -6% | . | 0.1 | . | 4
CCOC(=O)N1CCN(C(=O)c2noc(C(C)C)c2[N+](=O)[O-])CC1 | 3.1 | 10 | 1 | 5 | 1.0 | . | -1.6 | 0.0 | -2 | -9
CCOC(=O)Nc1c(O)ccc2oc(C)c(-c3ccccc3)c12 | -0.4 | 9 | . | . | . | 1% | . | -0.4 | -2 | -16
Nc1cc(C(=O)OCC(=O)NNC(=O)c2cccs2)ccc1Cl | -3.6 | 2 | 1 | 0 | -0.4 | -1% | -7.0 | 0.9 | -1 | -15
CSc1ccc(-c2nnn(Cc3ccc(Br)cc3)n2)cc1 | -3.3 | -1 | . | . | . | 9% | . | -0.4 | -4 | 7
CCOC(=O)C(C)(C)Sc1ncnc2nc[nH]c12 | 0.2 | -2 | . | . | . | -1% | . | -0.8 | -3 | -9
CCNC(=O)COC(=O)c1[nH]c(C)c(C(=O)OC)c1C | 7.1 | -30 | -2 | 1 | -3.2 | 32% | -0.1 | 0.7 | -3 | -13
Cc1ccc(S(=O)(=O)NCCC(=O)OCC(=O)NC(=O)c2cccn2C)cc1 | 4.8 | 5 | 6 | -1 | 0.8 | . | -4.9 | 0.0 | -2 | -6
CC(C)c1nnc(NC(=O)c2cc3cc(Br)ccc3oc2=O)s1 | -1.9 | 2 | -11 | -2 | 1.6 | -3% | -0.1 | 0.2 | -3 | 6
COc1cc(OC)cc(C(=O)OCc2ccc([N+](=O)[O-])cc2)c1 | 12 | 17 | -3 | 8 | -3.8 | ? | -0.9 | 0.8 | 5 | -16
O=C(COc1ccc(Cl)cc1)NCCSCc1ccccc1Cl | 0.5 | -7 | . | . | . | . | . | -0.4 | 3 | 16
Cc1cccnc1NC(=O)c1cccc(S(=O)(=O)N2CCCC2)c1 | 8.1 | 1 | 1 | -1 | -3.6 | 4% | -0.8 | 0.7 | -4 | -5
COc1cc(C(=O)N/N=C/c2coc3ccc(Cl)cc3c2=O)ccc1O | ? | 7 | -19 | -17 | -2.1 | . | -1.4 | -0.2 | -10 | -20
Cc1onc(-c2ccccc2Cl)c1C(=O)OCC(=O)N1CCN(c2ccccc2)CC1 | 2.6 | -1 | -6 | -14 | 2.8 | . | 9.2 | 0.7 | 0 | -3
C(=N\n1cnnc1)/c1ccccc1OCCOc1ccccc1 | -1.2 | -12 | . | . | . | 15% | . | -0.3 | -2 | -19
Cc1cc(C)c2oc(C(=O)Nc3ccc(S(=O)(=O)N4CCC(C)CC4)cc3)cc(=O)c2c1 | -1.3 | 37 | 4 | 4 | 1.6 | . | -0.5 | -0.6 | 0 | 10
O=C(CCNC(=O)Cn1ccc2ccccc2c1=O)NCC1CCCC1c1ccccc1 (stereo not given) | -5.2 | -4 | 13 | 19 | 3.5 | -2% | 0.2 | -0.5 | -10 | -13
O=C1CC(Nc2ccccc2)C(=O)N1CCc1ccccc1 (stereo not given) | 0.0 | -2 | . | . | . | -1% | . | -1.1 | -15 | -6
CC(C)(Sc1cc(C(C)(C)C)c(O)c(C(C)(C)C)c1)Sc1cc(C(C)(C)C)c(O)c(C(C)(C)C)c1 | -1.4 | -7 | -2 | 12 | 5.0 | 24% | -2.6 | 0.0 | 5 | -13
CCN(CC)C(=O)C(=O)N/N=C/c1cccs1 | 1.9 | -4 | . | . | . | 7% | . | 0.0 | 1 | -9
COc1cccc(C2/C(=C(\O)c3ccc4c(c3)OCCO4)C(=O)C(=O)N2CCCN2CCOCC2)c1OC (stereo not given) | 2.2 | -2 | . | . | . | -10% | . | 0.7 | 4 | -14
CCCCOc1ccc2c(c1)C(=O)c1cc(O)ccc1-2 | 3.9 | 8 | 6 | -6 | 2.1 | 4% | 33* | -1.8 | 9 | 0
O=C(NCCCc1ccccc1)c1cccc([N+](=O)[O-])c1 | 2.8 | 19 | -4 | -3 | 3.1 | -6% | 0.3 | -1.0 | 2 | 2
CCOc1ccc(NC(=O)CN2C(=O)CSc3ccc(S(=O)(=O)N4CCCC4)cc32)cc1 | 0.7 | 2 | -32 | -37 | -3.1 | -4% | -2.7 | -0.2 | -1 | 4
CN1C=CC=C/C1=C1\SC(=S)N(Cc2ccccc2)C1=O | -1.2 | 19 | -2 | -4 | 1.2 | -1% | 11 | 0.4 | -9 | 2
COc1ccc(N(CC(=O)NCCc2ccccc2)C(=O)CCC(=O)Nc2nccs2)cc1 | 3.4 | 2 | 1 | 4 | -0.7 | 25% | -1.2 | -0.2 | -3 | 17
COC(=O)c1nc(N)sc1-c1ccc(OC)cc1 | 5.0 | -2 | . | . | . | -3% | . | 0.4 | -2 | -7
Cc1cccc(N2CCN(C(=O)c3cnn4c(C(F)F)cc(-c5ccccc5)nc34)CC2)c1C | 1.7 | -1 | 5 | 12 | -1.6 | -1% | 6.6 | . | . | 47
O=C(Nc1cc(Cl)ccc1O)c1cc(-c2ccco2)on1 | -0.5 | -14 | 0 | -2 | -2.2 | . | -2.6 | -0.4 | -11 | -15
CC(=O)c1ccc(NC(=O)CSc2nnc(Cc3cccn3C)n2-c2ccc(F)cc2)cc1 | 2.6 | -3 | 4 | 6 | 3.7 | 9% | 6.7 | 0.2 | -1 | -1
CCN1CCN(CC(O)COc2ccc(Cl)cc2)CC1 (stereo not given) | 3.2 | -5 | . | . | . | -6% | . | 0.7 | -5 | -2
Clc1ccc(-c2nc(Cc3ccccc3Cl)no2)cc1 | 1.3 | -6 | . | . | . | -2% | . | -0.2 | -6 | 1
COc1ccc(NC(=O)/C(C#N)=C/c2ccc(Sc3nncn3C)c([N+](=O)[O-])c2)cc1 | 4.7 | 13 | 7 | 4 | 1.8 | >100µM* | -2.4 | 0.2 | -9 | -17
O=C(NCCN1C(=O)S/C(=C\c2cccnc2)C1=O)c1cccc(OC(F)F)c1 | -2.6 | -19 | 6 | 2 | -0.5 | 0% | -1.9 | -0.7 | -9 | 0
CCOC(=O)c1c(NC(=S)NCCc2ccccc2)sc2c1CC(C(C)C)OC2 (stereo not given) | -1.3 | 10 | . | . | . | -3% | . | -1.2 | . | -1
COc1cc(OC)cc(-c2c(C#Cc3ccsc3)c3cc(-c4ccc(OC)c(F)c4)ccc3n2C)c1 | . | . | 16 | 7 | -6.9 | . | 0.1 | -0.3 | -2 | .
CC(=O)c1ccc(NC(=O)COc2ccc3c(c2)OCO3)cc1 | ? | 9 | 2 | 7 | -1.1 | . | 1.3 | -0.1 | -2 | -18
CCOC(=O)c1ccc(S(=O)(=O)NNC(=O)COc2cccc(C)c2)cc1 | -1.0 | -3 | 0 | 6 | -0.2 | -1% | -12 | -0.2 | . | 5
COc1ccccc1NC(=O)Nc1nc(CC(=O)NCc2cccnc2)cs1 | -3.5 | -6 | 1 | 3 | -1.7 | 3% | 0.1 | 0.8 | 1 | 6
CCOc1cc(N2C(=O)CC3CS(=O)(=O)CC32)c(OCC)cc1NC(=O)c1ccccc1 (stereo not given) | -0.3 | -2 | . | . | . | -7% | . | -0.4 | -1 | -7

Bioassay records (PubChem)
